NPYLR7 ag: agonists of mosquito NPYLR7 receptor, primary screen, cell-based, Aedes aegypti, calcium fluorescence, mosquito biting behavior. activation, % at 10 µM. 270,000 compounds, 0.15% hits. HEK293T NPYLR7/Galpha15, GCaMP6s calcium fluorescence. Aedes aegypti neuropeptide Y-like receptor 7 (NPYLR7); in the data active = activation above about 40%;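 also: 0% = vehicle and 100% = reference agonist at the receptor; some compounds past the cut are filed as inactive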
NPYLR7 ag max-min: also measured in NPYLR7 ag; calls as there; activation, %; measured here: Max-Min RFU normalised activation; some inactives read as strong as hits;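 span of the calcium signal over five minutes; 0% = vehicle and 100% = native peptide agonist; compound fluorescence can raise it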
An asterisk follows results filed as active; & = joins results of further samples. The list is partial; the hit share may differ from the screen's.

compound,NPYLR7 ag,NPYLR7 ag max-min
CN(C)C(CNS(=O)(=O)/C=C/c1ccccc1)c1ccco1 (stereo not drawn),7,2
O=C1Nc2ccccc2C12CCCN(Cc1cc(-c3ccccn3)no1)C2 (stereo not drawn),5,3
O=C(N=Nc1c(O)[nH]c2ccccc12)c1ccc(Br)cc1,-6,-3
CCCc1nnc(NC(=O)CSc2nc(C)cc(C)n2)s1,-5,-9
c1ccc(CNc2cc(-c3cnccn3)c3cc[nH]c3n2)nc1,6,3
COc1ccc(C2C(C(=O)Nc3ccccc3)=C(C)Nc3nc(CCCO)nn32)cc1OC (stereo not drawn),2,-1
CCOC(=O)N1CCN(CC(=O)N2N=C(c3cc(C)ccc3C)CC2c2ccc3c(c2)OCO3)CC1 (stereo not drawn),2,-1
CN(C(=O)c1cc(-c2cccn2C)n[nH]1)C1CCCN(Cc2ccccc2F)C1 (stereo not drawn),3,2
CC(C)c1nc(CNC(=O)c2ccc(NC[C@H]3C[C@H]4C=C[C@H]3C43CC3)nc2)no1,7,2
Cc1cc(C)c2c(n1)nn1c(Nc3ccc(N(C)C)cc3)cc(C)nc21,0,12
COc1ccc(C(=O)NCCNC(=O)[C@H]2CCCN2C(=O)C2CC2)cc1,2,3
Cc1cc(C)c(S(=O)(=O)NCc2ccccc2Cl)cc1C,-11,-10

Later entries
compound,NPYLR7 ag,NPYLR7 ag max-min
COC(=O)c1ccc(COc2ccc(C3C4CCCC(C(C)(C)C)C4=Nc4nnnn43)cc2)cc1 (stereo not drawn),-3,-6
Cc1nc(C)c(CC(=O)N(C)C(C)c2ccccn2)s1 (stereo not drawn),12,10
Cc1cc(NC(=O)N2CC(=O)N3CC(C)c4ccccc4C3C2)ccc1Br (stereo not drawn),-9,-1
O=C(CNc1cccc(Br)c1)Nc1ccc(Cl)cc1,-2,-5
Cc1ccnc(NC(=O)c2cc(Cl)ccc2F)c1,2,1
Cc1ccc(C(CNc2cccc(F)c2C#N)N2CCOCC2)o1 (stereo not drawn),4,4
Cc1c(Br)cccc1NC(=O)C1(C)CCN1Cc1ccsc1 (stereo not drawn),4,0
CC(C(=O)NC1CCCCCC1)n1c(=O)c2c(ncn2C)n(C)c1=O (stereo not drawn),2,0
CCc1ccsc1C(=O)NCc1nnc(C)n1C,7,2
O=C(CCC(=O)N1C[C@H]2CC[C@H]1C2)NC1CCCCCCC1,18,5
CC1CN(C(=O)CCCCSc2nnc(Cc3ccccc3)n2-c2cccc(C(F)(F)F)c2)CCN1C(=O)c1cccc(C(F)(F)F)c1 (stereo not drawn),-3,4
O=C(NC1CC(=O)N(Cc2ccccc2C(F)(F)F)C1)c1cnccn1 (stereo not drawn),3,0

Carrying on:
compound,NPYLR7 ag,NPYLR7 ag max-min
Cc1nc(SCC(=O)NCCc2ccc(C(C)C)cc2)n[nH]1,2,-2
Cc1ccccc1OC(C(=O)N1CCC2(CC1)CN(C)CCN2C)C(C)C (stereo not drawn),1,1
O=c1c2c3n(nnc-2nn1-c1ccccc1)CCC3,1,-1
COc1ccc(OCCCN2C(=O)C3(CC(=O)N(Cc4ccccc4)C3=O)c3cc(OC)ccc32)cc1 (stereo not drawn),11,2
COCCN1C[C@@H]2C[C@@H](C(N)=O)N(C(=O)c3ncoc3-c3ccccc3)c3cccc(c32)C1=O,6,13
COc1ccc(S(=O)(=O)N2CCC(Cc3ccc(C(F)(F)F)cc3)CC2)cc1,27,27
Cc1nc(SCCNC(=O)c2csc3nc(-c4ccccc4)cn23)n[nH]1,5,2
COC(=O)C1CCN(C(=O)COC(=O)c2cccc(OC)c2O)CC1,0,-2
CC1CCc2[nH]nc(C(=O)N(C)CCc3noc(C4CC4)n3)c2C1 (stereo not drawn),12,3
O=C(CC(c1ccccc1)c1ccccc1Cl)N1CCOCC1 (stereo not drawn),6,-5
CC(CCc1ccccc1)Nc1ncnc(-n2cccn2)c1N (stereo not drawn),6,4
COc1ccc(C2c3ccsc3CCN2C(=O)CNC(C)C)cc1 (stereo not drawn),-5,4

Additional entries follow:
compound,NPYLR7 ag,NPYLR7 ag max-min
CC(=O)N1CCN(CCNCc2c(Cl)nc3ccccn23)CC1,13,13
CC(C)c1nc(CNC(=O)N(C)C(C)c2cccnc2)cs1 (stereo not drawn),-4,-4
COCCN1C(=O)N(C2Cc3ccccc3C2)C(=O)C12CCN(Cc1sccc1C)CC2,9,-1
COCCCn1c(C(=O)Nc2ccccc2C(=O)OC)cc2c(=O)n(C)c(=O)n(C)c21,-2,-3
Oc1c2cccnc2cn1CCNc1ccccc1,-1,4
CC(=O)C1=C(Nc2ccc(Br)cc2)CC(C)(O)C(C(C)=O)C1c1ccccc1 (stereo not drawn),-8,-10
OCC1OC(Nc2ccc(Cl)cc2)C(O)C(O)C1O (stereo not drawn),3,-1
CCNC(=O)OC1CCN(C(=O)CC(=O)NC)CC(=O)N(C)c2ccccc21 (stereo not drawn),1,7
CCc1nnsc1C(=O)NC(C)C12CC3CC(CC(C3)C1)C2 (stereo not drawn),-2,0
CCOC(=O)N1CCN(CC2=CCC3CC2C3(C)C)CC1 (stereo not drawn),-1,-2
Cc1onc(-c2ccccc2)c1C(=O)Nc1cc([N+](=O)[O-])ccc1Cl,-5,-5
CC1(c2ccc(F)cc2)C=C(c2ccc(F)cc2)n2nc(C(F)(F)F)nc2N1 (stereo not drawn),3,3

(listing goes on)
compound,NPYLR7 ag,NPYLR7 ag max-min
C[C@]12C=CC(=O)C=C1CC[C@@H]1C2=CC[C@]2(C)[C@@H](C(=O)CN3CCN(c4cc(N5CCCC5)nc(N5CCCC5)n4)CC3)CC[C@@H]12,0,-14
O=C(C=Cc1ccc(Cl)cc1Cl)N(C1CCCC1)C1CCS(=O)(=O)C1 (stereo not drawn),2,8
COc1ccc(-c2cc(C(F)(F)F)n3ncc(C(=O)Nc4sc5c(c4C#N)CCCC5)c3n2)cc1OC,10,19
CN(C)C(=O)c1cncn1-c1ccc(-c2cc(C(F)(F)F)cc(C(F)(F)F)c2)cc1,20,34
Clc1ccccc1CNCC1CCC(CNCc2ccccc2Cl)CC1 (stereo not drawn),7,-8
CCOc1ccc(C(=O)c2ccc(O)c(O)c2O)cc1,-6,-8
Fc1cnc(N2CCc3ccccc32)nc1N1CCc2ccccc21,13,8
COc1cccc(Cc2nc3c(c(N4CCOCC4)n2)CN(S(=O)(=O)c2ccc(F)cc2)CC3)c1,0,8
COc1ccc(-n2[nH]c(C)c(C3=C(N4CCC(C)CC4)C(=O)N(C(C)C)C3=O)c2=O)cc1,3,2
O=C(CC(c1cccc(O)c1)c1ccccc1Cl)NC1CCC(O)CC1 (stereo not drawn),16,8
C[C@@H](CN(C)C[C@H]1C(=O)O[C@@H]2C[C@@]3(C)CCC[C@]4(CO4)C3CC21)[C@H](O)c1ccccc1 (stereo partly drawn),3,2
Cc1ccc(-n2ccnc2SCC(=O)NC(C)(C#N)C2CC2)cc1C (stereo not drawn),9,3

Additional structures.
Values run as follows: NPYLR7 ag	NPYLR7 ag max-min
- Cc1c(C(=O)N2CCC3(CC2)OCCO3)cc(-c2ccc(Cl)cc2)n1-c1ccccc1
→ 4	2
- COc1ccc(Oc2cc(C)nc(SCc3cccc(C)c3)n2)cc1
→ -8	-7
- CN(Cc1ccon1)C(=O)CC1C(=O)NCCN1CC(c1ccccc1)c1ccccc1 (stereo not drawn)
→ 2	2
- CC(=O)OCC(=O)N1C2CCC(O)(CC2)C1CN1CCOCC1 (stereo not drawn)
→ -5	4
- CC1CCc2c(C(=O)NCCc3ccccn3)csc2C1 (stereo not drawn)
→ 3	2
- C#CCN(C)C(=O)c1cncn1-c1ccc(-c2ccc(F)c(F)c2)cc1
→ 1	13
- Cc1c(CS(C)(=O)=O)cccc1NCC(=O)N1CCCCC1C (stereo not drawn)
→ -8	-9
- COc1cccc(C2c3[nH]c4ccccc4c3CCN2C(=O)c2cnc[nH]2)c1OC (stereo not drawn)
→ 6	2
- CS(=O)(=O)Nc1cccc(CNc2ncccc2C#N)c1
→ 2	1
- CC(C)(C)c1ccc(C(=O)N2CCC2(C)C(=O)NS(=O)(=O)c2cccc(C#N)c2)cc1 (stereo not drawn)
→ 4	3
- CCc1cccc(C)c1NC(=O)c1cc2ccccc2oc1=O
→ -1	6
- CSc1ncccc1C(=O)NCc1ccccc1-c1ccc(CN2CCCC2=O)cc1
→ 11	8
- O=C(Nc1ccc(Cl)c(Cl)c1)N(CC(=O)N1c2ccccc2-n2cccc2C1c1ccco1)C1CC1 (stereo not drawn)
→ 1	13
- O=C1OC(c2ccc(-c3ccccc3)cc2)=NC1=Cc1ccc(C(=O)O)cc1
→ 0	71
- COc1ccc(NS(=O)(=O)c2cccc(C(=O)NCC(F)(F)F)c2)cn1
→ 11	7
- COC(=O)COC1C[C@](OCc2cccc(C(F)(F)F)c2)(C(=O)NCc2ccco2)C[C@H]2OC(C)(C)O[C@@H]12 (stereo partly drawn)
→ 8	20
- COc1ccc(F)c(CN2CCCC3(CCN(C(=O)c4ncoc4C4CC4)C3)C2)c1 (stereo not drawn)
→ 6	6
- COc1ccc(CCNC(=O)c2cccnc2N2CCN(C(=O)c3cccc(C)c3C)CC2)cc1OC
→ 9	-4
- Cc1ccc(-n2c(SCC(=O)N(C)C)nc3ccccc3c2=O)cc1F
→ 2	9
- CC(=O)OCCNc1cc(C)c2noc3c2c1C(=O)c1ccccc1-3
→ 11	5
- CCC(C1=NN2C(=N)/C(=C\c3ccc(OS(C)(=O)=O)c(OC)c3)C(=O)N=C2S1)c1ccccc1 (stereo not drawn)
→ 2	1
- CC(=O)Nc1ccc(CN2C(=O)C(C)ON=C2c2ccccn2)cc1 (stereo not drawn)
→ 7	3
- CCOC(=O)N1CCC(N2CCC3(CC2)C(=O)N(C)C(=O)N3CCc2ccc(OC)cc2)CC1
→ 17	8
- O=C(Cn1ccc(=O)[nH]c1=O)N1CCCC(N2CCCC2)C1 (stereo not drawn)
→ -1	-2
- Cc1onc(-c2ccccc2Cl)c1C(=O)NC1CCCCC1
→ 1	-7
- FC(F)(F)c1ccccc1-c1nc(N2CCN(C(c3ccccc3)c3ccccc3)CC2)c2ccccc2n1
→ 3	-1
- NS(=O)(=O)c1cc2c(cc1Cl)NCNS2(=O)=O
→ -3&-1&1&1&-6	-12&-4&-1&-20&-8
- O=C1CC2(CCCC2)C(=O)N1CN1CCCC1c1nnc2n1CCCCC2 (stereo not drawn)
→ 0	8
- CN1C2CCC1CC(OC(=O)c1c[nH]c3ccccc13)C2 (stereo not drawn)
→ 13&4	14&-14
- COc1ccc(CN2CCNC(=O)C2CC(=O)N2CCN(c3ccccc3C)CC2)cc1C (stereo not drawn)
→ -3	-5

An excerpt of these results, with each value named:
FC(F)(F)c1ccccc1-c1nc(N2CCN(C(c3ccccc3)c3ccccc3)CC2)c2ccccc2n1
  NPYLR7 ag: 3	NPYLR7 ag max-min: -1
O=C1CC2(CCCC2)C(=O)N1CN1CCCC1c1nnc2n1CCCCC2 (stereo not drawn)
  NPYLR7 ag: 0	NPYLR7 ag max-min: 8
O=C(Cn1ccc(=O)[nH]c1=O)N1CCCC(N2CCCC2)C1 (stereo not drawn)
  NPYLR7 ag: -1	NPYLR7 ag max-min: -2
CN1C2CCC1CC(OC(=O)c1c[nH]c3ccccc13)C2 (stereo not drawn)
  NPYLR7 ag: 13&4	NPYLR7 ag max-min: 14&-14

(continued)
Values run as follows: NPYLR7 ag	NPYLR7 ag max-min
- CC1CCCCN1C(=O)Cn1cc(C(F)(F)F)cc(Cl)c1=O (stereo not drawn)
→ -1	19
- CCCN1CCN(C)C2(CCN(C(=O)CCOC)CC2)C1
→ 4	-4
- CCN(CC1COc2ccccc2O1)c1ncnc2sccc12 (stereo not drawn)
→ 6	3
- N#Cc1ccc(Cn2nnn(-c3ccccc3)c2=O)c(F)c1
→ 3	2
- CCOC(=O)CC1(NC(=O)C2CCC(=O)N(Cc3ccccn3)C2)CCCCC1 (stereo not drawn)
→ 13&-4	16&-6
- CCOC(=O)CCN(C(=O)Nc1nnc(C2CC2)s1)C1CC1
→ 5	1
- CCCCCCc1ccc(C(=O)N2CCSC2c2ccc(F)cc2F)cc1 (stereo not drawn)
→ 17	30
- COc1ccc(CCNC(=O)C(C2CCCC2)N2CCN(C(=O)c3cccs3)CC2)cc1 (stereo not drawn)
→ 9	5
- O=C(NCc1nnc2n1CCCC2)c1cccc(C2CCNC2)c1 (stereo not drawn)
→ 16	4
- CCC(C)C(=O)N(Cc1ccccc1)Cc1nc2cc(Cl)ccc2o1 (stereo not drawn)
→ 1	4
- CCn1c(C2CCN(C(=O)c3ccc(-n4ccnc4)cc3)CC2)nn(C)c1=O
→ 17	12
- Fc1ccc(CN2CCC3(CC2)OCc2ccccc23)c(F)c1
→ 1	27
- CCOC(=O)C1(C)CCN1C(=O)c1c(C)noc1C (stereo not drawn)
→ -3	-9
- O=C(Cn1cnc2scc(-c3ccccc3)c2c1=O)N1CCCCC1
→ 2	-4
- COCCCN(CC(=O)N(Cc1cccn1Cc1ccccc1)C1CCCCC1)C(=O)c1cccc(OC)c1
→ -10	-7

Quoted at random: seven records from the list, in no set order.
Values run as follows: NPYLR7 ag	NPYLR7 ag max-min
- O=C(Cn1cnc2scc(-c3ccccc3)c2c1=O)N1CCCCC1
→ 2	-4
- Fc1ccc(CN2CCC3(CC2)OCc2ccccc23)c(F)c1
→ 1	27
- CC1CCCCN1C(=O)Cn1cc(C(F)(F)F)cc(Cl)c1=O (stereo not drawn)
→ -1	19
- CCOC(=O)CC1(NC(=O)C2CCC(=O)N(Cc3ccccn3)C2)CCCCC1 (stereo not drawn)
→ 13&-4	16&-6
- CCCN1CCN(C)C2(CCN(C(=O)CCOC)CC2)C1
→ 4	-4
- N#Cc1ccc(Cn2nnn(-c3ccccc3)c2=O)c(F)c1
→ 3	2
- CCN(CC1COc2ccccc2O1)c1ncnc2sccc12 (stereo not drawn)
→ 6	3

Assay outcomes deposited in PubChem by Fisher Drug Discovery Resource Center.
